Arbovirus anti – arbovirus infection inhibition; arbovirus infection cell-based antiviral screen; inhibition, % at 10 µM; hit rate 0.37% among 200,000;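 active = inhibition from about 30%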;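 note: bluetongue infection of BSR cells; cell survival read as ATP light after 72 h; 0% = infected wells without compound and 100% = uninfected wells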
Mtb betalactam – beta-lactam sensitization of Mtb H37Rv; M. tuberculosis H37Rv growth with meropenem, percent inhibition; hits of this screen are not shown here; inhibition, % at 25 µM; hit rate 0.27% among 330,000; AID 434955;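 active = about 74% or more and at least 40 points above the plate without the antibiotic, then above 30% in a dose series; inconclusive = first-round hits that could not be retested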;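 note: growth measured after seven days incubation then overnight dye step; 0% = bacteria only wells and 100% = bacteria with antibiotic; twin plates without the antibiotic show which effects depend on it; some results filed as inactive read as strong as hits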
RecA intein inh – Mtb RecA intein splicing inhibition; cell-free RecA intein splicing, fluorescence; inhibition, %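 (about 9 µM by stock and volumes)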; hit rate 0.75% among 290,000; in the data active = inhibition above about 30%; inconclusive = no clear call, values can overlap the other calls;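 note: 0% = vehicle wells and 100% = reference inhibitor control wells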
Target sequence (P9WHJ3 whole entry, looked up): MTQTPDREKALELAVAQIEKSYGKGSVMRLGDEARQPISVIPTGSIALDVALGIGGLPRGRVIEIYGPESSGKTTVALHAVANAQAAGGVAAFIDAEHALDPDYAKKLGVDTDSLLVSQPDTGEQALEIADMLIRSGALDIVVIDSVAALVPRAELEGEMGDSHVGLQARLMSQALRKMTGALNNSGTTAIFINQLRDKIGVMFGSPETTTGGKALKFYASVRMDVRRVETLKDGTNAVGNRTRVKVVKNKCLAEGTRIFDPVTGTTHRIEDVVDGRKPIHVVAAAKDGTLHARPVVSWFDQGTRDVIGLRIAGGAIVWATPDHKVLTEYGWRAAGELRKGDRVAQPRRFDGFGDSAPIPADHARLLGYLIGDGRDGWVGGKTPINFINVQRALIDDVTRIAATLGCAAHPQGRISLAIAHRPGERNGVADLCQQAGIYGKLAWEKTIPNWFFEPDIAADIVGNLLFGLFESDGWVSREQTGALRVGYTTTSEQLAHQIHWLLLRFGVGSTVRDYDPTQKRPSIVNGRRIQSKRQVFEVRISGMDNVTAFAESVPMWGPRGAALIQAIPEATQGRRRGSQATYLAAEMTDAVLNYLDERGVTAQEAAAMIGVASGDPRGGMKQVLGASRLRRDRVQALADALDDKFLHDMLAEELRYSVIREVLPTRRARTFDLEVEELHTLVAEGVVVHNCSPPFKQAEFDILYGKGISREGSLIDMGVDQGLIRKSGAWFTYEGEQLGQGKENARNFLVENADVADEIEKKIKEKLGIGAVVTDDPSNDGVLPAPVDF
Mtb growth – M. tuberculosis H37Rv growth inhibitors, H37Rv strain (AID 1626) | hit rate 0.95% among 220,000 | M. tuberculosis H37Rv growth inhibition; higher % means a stronger effect | inhibition, % at 10 µM; hits with a dose series show IC50 in µM;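 active = confirmed in a dose series; inconclusive = inhibition above 80% but not taken into the dose series; inactive = below 80% or under 30% at every dose of the series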;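 note: bacteria incubated seven days before Alamar blue readout; 0% = bacteria only wells and 100% = bacteria with antibiotic wells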
YopH PTP inh – blocks Yersinia enterocolitica YopH tyrosine phosphatase. fluorescence Ex485/Em525. inhibition, %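 (about 10 µM by stock and volumes)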. hit rate 0.16% among 140,000. AID 898;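 active = inhibition of 50% or more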;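 note: controls were vehicle for no effect and minimum signal wells for full effect; inactives centre near -20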
Arbovirus anti repeat – also measured in Arbovirus anti; calls as there; inhibition, %; measured here: 10K subset replicate screen; many hits read low in the repeat;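 first of two repeat runs on a subset; 0% = infected and 100% = uninfected wells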
* hit, by the source's call; ? = inconclusive; nt = not tested or not shown. These rows are one share of the data; rates above refer to the full screens.

SMILES	Arbovirus anti	Mtb betalactam	RecA intein inh	Mtb growth	YopH PTP inh	others
COc1ccc(NC(=O)CSc2nc(O)c(Cc3ccccc3)c(=O)[nH]2)cc1	-2	86	-0.1	20%	6
Cc1cccc(-c2nc(C#N)c(N3CCC(C)CC3)o2)c1	nt	-4	-5.0	nt	nt
CN(c1cccc(NC(=O)CN(c2ccc(Cl)c(Cl)c2)S(=O)(=O)c2ccccc2)c1)S(C)(=O)=O	-14	94	11	47%	-26
OC(COC1CCCCC1)CN1CCN(c2ccccc2)CC1 (centres undefined)	-3	5	-0.3	-5%	12
COc1ccc(-c2cc3ccccc3n2CC(O)CN2CCCCC2)cc1 (centres undefined)	nt	1	-0.4	3%	nt
Cc1ccc(OCCn2cnc3ccccc3c2=O)c([N+](=O)[O-])c1	-7	6	-0.2	-3%	-32
Cc1ccc(CNC(=O)CSCc2ccc(F)cc2)cc1	2	-10	3.5	11%	nt
CCC(=O)NC(=S)Nc1cccc(-c2nc3ncccc3o2)c1	-1	-5	-2.3	3%	-15
COc1ccc(NC(=O)N2CCCC(c3nc(-c4ccc(C(C)C)cc4)no3)C2)cc1 (centres undefined)	-16	94	nt	11%	-35
Cc1ccc(OCC(=O)NCCN2CCOCC2)cc1C	4	3	-6.3	-9%	-24
COc1ccc(C2OC(=O)CC2C(=O)NC(C)C)cc1 (centres undefined)	2	-4	nt	-4%	-34
Cc1ccc(S(=O)(=O)n2nc(OC(=O)c3c(-c4ccccc4Cl)noc3C)cc2N)cc1	6	0	26	-4%	-48
O=C(NCc1ccccc1Cl)c1ccc2nc[nH]c2c1	-2	12	3.3	1%	-54
O=C(NC(=S)N1CCc2ccccc21)c1ccccc1Br	-20	45	3.1	?	-26
COc1ccc(C)cc1Nc1ccc(C(=O)O)cc1[N+](=O)[O-]	0	-6	2.2	0%	nt
COc1ccccc1-c1c(C)nn2c(N3CCC(C(N)=O)CC3)cc(C)nc12	0	-1	1.4	-2%	-36
CC(C)Nc1nc(NC(C)C)nc(N(C)C(N)=O)n1	4	0	2.1	-2%	-4
CCc1ccc(/C=C2\SC(=S)N(CCC(=O)NCCCN3CCOCC3)C2=O)cc1	nt	-2	3.7	nt	nt
CSc1ccccc1C(=O)NCCOc1cccc(C)c1	-4	5	-1.3	12%	nt
Cc1ccc(S(=O)(=O)N2CCOCC2)cc1NC(=O)COC(=O)CCn1c(C)csc1=O	nt	0	1.4	nt	nt
O=C(c1ccc(F)cc1)c1cn[nH]c1-c1ccccc1O	0	1	-0.2	-2%	-11	Arbovirus anti repeat=1
Cc1nnc(NC(=O)c2ccccc2C(=O)O)s1	11	-8	-2.7	-4%	-17
Cc1ccc(NC(=O)NCCCCc2ccccc2)cc1	nt	-8	1.3	nt	nt
CC(C)(Oc1ccc(Cl)cc1)C(=O)N1CCN(c2ccccn2)CC1	3	-4	11	9%	6	Arbovirus anti repeat=6
Cc1cc(C)c(C#N)c(SCc2nnc(-c3ccccc3)o2)n1	-14	6	-1.9	3%	-22

An excerpt from above in order of molar mass, lowest first:
SMILES	Arbovirus anti	Mtb betalactam	RecA intein inh	Mtb growth	YopH PTP inh	others
COc1ccc(C2OC(=O)CC2C(=O)NC(C)C)cc1 (centres undefined)	2	-4	nt	-4%	-34
O=C(c1ccc(F)cc1)c1cn[nH]c1-c1ccccc1O	0	1	-0.2	-2%	-11	Arbovirus anti repeat=1
O=C(NCc1ccccc1Cl)c1ccc2nc[nH]c2c1	-2	12	3.3	1%	-54
Cc1ccc(OCC(=O)NCCN2CCOCC2)cc1C	4	3	-6.3	-9%	-24
CSc1ccccc1C(=O)NCCOc1cccc(C)c1	-4	5	-1.3	12%	nt
COc1ccc(C)cc1Nc1ccc(C(=O)O)cc1[N+](=O)[O-]	0	-6	2.2	0%	nt
Cc1ccc(CNC(=O)CSCc2ccc(F)cc2)cc1	2	-10	3.5	11%	nt
Cc1cc(C)c(C#N)c(SCc2nnc(-c3ccccc3)o2)n1	-14	6	-1.9	3%	-22
CCC(=O)NC(=S)Nc1cccc(-c2nc3ncccc3o2)c1	-1	-5	-2.3	3%	-15
O=C(NC(=S)N1CCc2ccccc21)c1ccccc1Br	-20	45	3.1	?	-26
COc1ccc(-c2cc3ccccc3n2CC(O)CN2CCCCC2)cc1 (centres undefined)	nt	1	-0.4	3%	nt
COc1ccc(NC(=O)CSc2nc(O)c(Cc3ccccc3)c(=O)[nH]2)cc1	-2	86	-0.1	20%	6
COc1ccc(NC(=O)N2CCCC(c3nc(-c4ccc(C(C)C)cc4)no3)C2)cc1 (centres undefined)	-16	94	nt	11%	-35
Cc1ccc(S(=O)(=O)n2nc(OC(=O)c3c(-c4ccccc4Cl)noc3C)cc2N)cc1	6	0	26	-4%	-48
Cc1ccc(S(=O)(=O)N2CCOCC2)cc1NC(=O)COC(=O)CCn1c(C)csc1=O	nt	0	1.4	nt	nt
CN(c1cccc(NC(=O)CN(c2ccc(Cl)c(Cl)c2)S(=O)(=O)c2ccccc2)c1)S(C)(=O)=O	-14	94	11	47%	-26

Carrying on:
SMILES	Arbovirus anti	Mtb betalactam	RecA intein inh	Mtb growth	YopH PTP inh	others
Cc1cc(/C(N)=N/OC(=O)Nc2ccc(Cl)cc2)no1	nt	-2	1.0	-11%	nt
CCn1c(SCC(=O)NC2CCCC2)nnc1-c1c[nH]c2ccccc12	7	-3	-0.6	46%	-22
CC(=O)c1cccc(S(=O)(=O)NC2CCCCCC2)c1	0	-8	3.5	-1%	-25
COC(=O)Cc1[nH]nc2c1C1(C(=O)N(Cc3ccc(Cl)cc3)c3ccccc31)C(C#N)=C(N)O2 (centres undefined)	-8	-3	15	3%	-26
CCC1(C)Cc2c(sc3[nH]c(=S)n(Cc4ccccc4)c(=O)c23)CO1 (centres undefined)	-3	-7	1.3	8%	-11
CCCCn1c(N)c(N(CC(C)C)C(=O)CSc2nnc(C)n2-c2ccc(OC)cc2)c(=O)[nH]c1=O	nt	-1	1.5	nt	nt
CCOc1ccc(N2C(=O)CC(NCCc3ccncc3)C2=O)cc1 (centres undefined)	7	0	5.5	-5%	-27
CCN(C(=O)COC(=O)c1ccccc1SCC(=O)NC1CCCCCCC1)C1CCS(=O)(=O)C1 (centres undefined)	5	3	0.9	3%	-22
COc1ccc(NC(=O)CSc2nc3sc(C)cc3c(=O)n2C)c(OC)c1	nt	4	3.7	nt	nt
Cc1ccc(CC(NC(=O)c2ccccc2)C(=O)N2CCCC2C(=O)O)cc1 (centres undefined)	2	5	0.1	-9%	2
CC(C)c1nc2c(c(=O)n(C)c(=O)n2C)n1C	nt	0	-0.6	7%	nt
CCCCN=Cc1sc2ccc(OCC)cc2c1O	-8	-2	-0.4	-5%	-3
COc1ccc(NC(=O)CS(=O)CC(=O)Nc2cc(Cl)ccc2OC)cc1 (centres undefined)	0	0	-1.9	-6%	-19
S=C(Nc1ccccc1)N1CCN(c2ccc(N3CCOCC3)nn2)CC1	11	-4	2.2	-5%	nt
CCOC(=O)c1[nH]ncc1CN1CCC(Cc2ccccc2)(C(=O)OCC)CC1	nt	-7	1.1	-3%	nt
O=C(NC1CC1)c1cc2c(F)cccc2s1	10	1	1.0	-6%	nt
O=C(c1ccc(-c2ccccc2)cc1)N1CCN(C(=O)c2ccco2)CC1	-7	8	6.1	-1%	7
c1ccc(CSCc2cn3ccsc3n2)cc1	-6	-8	0.1	2%	17
COc1ccc(/C=C2\C(=N)N3N=C(CC(=O)N4CCCCC4)SC3=NC2=O)cc1	nt	6	1.6	nt	nt
O=C(NCc1ccc2c(c1)OCO2)c1cccc2c1C(=O)N(C1CCCCC1)C2	0	-2	0.1	1%	-6
COc1ccc(CC(=O)Nc2cccc(-c3csc(C)n3)c2)cc1	-10	0	-4.5	11%	1
C=CCn1c(CCSCc2ccccc2)n[nH]c1=S	3	-10	1.5	-3%	nt
COc1ccc(C2=NC(c3ccccc3)CO2)cc1 (centres undefined)	1	-11	-1.4	1%	-34
COC(=O)Cn1cc(/C=N/NC(=O)c2ccc(C#N)cc2F)c2ccccc21	3	-4	-0.1	-5%	-26
CCCc1n[nH]c2c1C(=O)CC(C)(C)C2	4	-7	-1.4	-3%	-28	Arbovirus anti repeat=2

Additional entries
SMILES	Arbovirus anti	Mtb betalactam	RecA intein inh	Mtb growth	YopH PTP inh	others
O=C(CSc1ccc(-c2ccccn2)nn1)NCc1ccc(F)cc1	-22	-1	-1.0	3%	nt
O=C(C1CC(=O)N(C2CCCCC2)C1)N1CCN(c2cccc(C(F)(F)F)c2)CC1 (centres undefined)	nt	-4	6.7	nt	nt
CCC1Sc2ccc(S(=O)(=O)CCC(=O)Nc3ccccc3Cl)cc2NC1=O (centres undefined)	nt	-7	-0.5	nt	nt
CCCCCOc1ccc(C(=O)CCN2CCOCC2)cc1	nt	1	25	nt	nt
CCN(CC(=O)NCc1ccc(Cl)cc1)C(=O)/C=C/c1cccs1	3	3	-6.9	2%	nt
C#CCOCCOCCOCCNc1nc(N2CCOCC2)nc(N2CCN(C(=O)[C@H](CCC(=O)O)n3cc(C(N)Cc4ccc(O)cc4)nn3)CC2)n1 (some centres undefined)	-1	-2	-2.6	-4%	nt
CC1=NN(C(=O)c2ccc(Cl)cc2)C(O)(c2ccccc2)C1 (centres undefined)	nt	50	1.7	nt	nt
COc1cc(NC(=O)COC(=O)c2cnc(C)cn2)c(C)cc1[N+](=O)[O-]	5	4	-1.2	-12%	nt
COc1ccc(CCNC(=O)CSCc2ccc(Cl)cc2)cc1OC	5	0	4.3	-2%	-3
Cc1ccc(N(CC(=O)Nc2ccccc2C(=O)N2CCOCC2)S(C)(=O)=O)cc1	-1	-8	1.7	-2%	-28
Cc1cccc2cc(C(c3nnnn3C3CCCC3)N3CCOCC3)c(=O)[nH]c12 (centres undefined)	-1	7	-2.8	-4%	-8
COc1cc([N+](=O)[O-])ccc1NC(=O)COC(=O)c1ccc(NC(N)=O)cc1	nt	6	0.9	-6%	nt
CCOc1ccc(CN2CCN(Cc3cccn3-c3nccs3)CC2CCO)cc1 (centres undefined)	nt	-9	1.0	1%	nt
CCC(C)[C@@H](N)C(=O)N/N=C/c1ccc2ncccc2c1 (some centres undefined)	-1	-4	-1.6	-6%	-34
NS(=O)(=O)c1ccccc1NC(=O)c1c(O)c2ccccc2[nH]c1=O	nt	-5	1.2	nt	nt
COc1ccccc1CCNC(=O)C(=O)c1cn(CC(=O)N2CCCC2)c2ccccc12	nt	-3	1.1	nt	nt
c1ccc(-c2cc(N3CCOCC3)nc(-c3ccccc3)n2)cc1	-5	5	nt	-1%	-13
O=C(Nc1nccs1)C1CC(=O)N(Cc2ccco2)C1 (centres undefined)	-2	4	0.2	9%	nt
O=C(CSc1nnc(C2COc3ccccc3O2)o1)N1CCCCC1 (centres undefined)	8	96	-0.3	45%	-44	Arbovirus anti repeat=3
CCOc1ccc(-c2nc(CCl)cs2)cc1OC	2	-2	4.4	0%	nt
CC(=O)c1cc(CN2CCCCC2)cc(OC(C)C)c1	6	-6	nt	0%	-33
C[C@@H]1NC(=O)[C@H](CCCN=C(N)N)NC(=O)c2cc([N+](=O)[O-])cc(I)c2OCC[C@@H](C(=O)NC(CC(=O)O)C(N)=O)NC1=O (some centres undefined)	-8	-3	-4.3	nt	-11
COc1cc2c(cc1OC)C(C)N(C(=O)c1cccs1)CC2 (centres undefined)	-11	-6	2.3	2%	nt
CCNC(=O)c1sccc1-n1cccc1	-2	2	1.1	-17%	-16
C=CCSc1ncc(C#N)c(N)n1	1	-8	0.4	-3%	30

Following part
SMILES	Arbovirus anti	Mtb betalactam	RecA intein inh	Mtb growth	YopH PTP inh	others
Cc1cccc(-n2c(SCC(=O)Nc3nonc3C)nnc2-c2ccoc2C)c1	5	25	nt	0%	-19
CCOc1ccc(S(=O)(=O)N2CCC(C(=O)NCc3ccncc3)CC2)cc1C	nt	4	-0.7	nt	nt
O=C1c2ccccc2-c2c1cccc2C(=O)N1CCCCCC1	-3	2	1.1	28%	1
CC(C)CN=C(NS(=O)(=O)c1ccccc1)C(Cl)(Cl)Cl	-48	10	16	4%	-21
CCOc1ccc(C(=O)CCC(=O)O)cc1	9	nt	-4.7	-9%	-128
CCCOc1cccc(-c2cc(C(=O)NNC(=S)NCC)c3ccccc3n2)c1	-17	37	nt	nt	-9
FC(F)(F)c1cccc(Sc2cc(C(F)(F)F)nc(-c3ccccn3)n2)c1	-10	2	0.3	4%	-83
Cc1ccc(-n2nc3c(c2NC(=O)c2ccc4c(c2)OCO4)CS(=O)C3)cc1 (centres undefined)	-3	-3	-4.1	2%	-22
Cc1c(C)c2cc(Cl)c(OCc3nn[nH]n3)cc2oc1=O	-1	-3	5.5	1%	-13
COc1ccc(NC(=O)c2cccc(NC(=O)c3ccccc3)c2)cc1	nt	-1	2.5	nt	nt

Looked up by compound from the list above, 2 records:
SMILES	Arbovirus anti	Mtb betalactam	RecA intein inh	Mtb growth	YopH PTP inh	others
CCOc1ccc(C(=O)CCC(=O)O)cc1	9	nt	-4.7	-9%	-128
Cc1cccc(-n2c(SCC(=O)Nc3nonc3C)nnc2-c2ccoc2C)c1	5	25	nt	0%	-19

Compound activity as filed in PubChem BioAssay.
